High-throughput results: PubChem, Johns Hopkins Ion Channel Center
KCNQ2 inh: KCNQ2 channel blockers in CHO-K1 cells – cell-based, FluxOR thallium flux, B-score, primary screen (AID 2156). O88943. 20 min; stronger effect = lower value; only compounds with negative scores are shown here; some inactives read as strong as hits. B-score at 10 µM. 1.1% of 310,000 active;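 active means fluorescence ratio B-score at most minus 3 library SDs, with starting brightness B-score within 2 library SDs, cut at about -5.5 in these data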
Target sequence (O88943 whole entry, looked up): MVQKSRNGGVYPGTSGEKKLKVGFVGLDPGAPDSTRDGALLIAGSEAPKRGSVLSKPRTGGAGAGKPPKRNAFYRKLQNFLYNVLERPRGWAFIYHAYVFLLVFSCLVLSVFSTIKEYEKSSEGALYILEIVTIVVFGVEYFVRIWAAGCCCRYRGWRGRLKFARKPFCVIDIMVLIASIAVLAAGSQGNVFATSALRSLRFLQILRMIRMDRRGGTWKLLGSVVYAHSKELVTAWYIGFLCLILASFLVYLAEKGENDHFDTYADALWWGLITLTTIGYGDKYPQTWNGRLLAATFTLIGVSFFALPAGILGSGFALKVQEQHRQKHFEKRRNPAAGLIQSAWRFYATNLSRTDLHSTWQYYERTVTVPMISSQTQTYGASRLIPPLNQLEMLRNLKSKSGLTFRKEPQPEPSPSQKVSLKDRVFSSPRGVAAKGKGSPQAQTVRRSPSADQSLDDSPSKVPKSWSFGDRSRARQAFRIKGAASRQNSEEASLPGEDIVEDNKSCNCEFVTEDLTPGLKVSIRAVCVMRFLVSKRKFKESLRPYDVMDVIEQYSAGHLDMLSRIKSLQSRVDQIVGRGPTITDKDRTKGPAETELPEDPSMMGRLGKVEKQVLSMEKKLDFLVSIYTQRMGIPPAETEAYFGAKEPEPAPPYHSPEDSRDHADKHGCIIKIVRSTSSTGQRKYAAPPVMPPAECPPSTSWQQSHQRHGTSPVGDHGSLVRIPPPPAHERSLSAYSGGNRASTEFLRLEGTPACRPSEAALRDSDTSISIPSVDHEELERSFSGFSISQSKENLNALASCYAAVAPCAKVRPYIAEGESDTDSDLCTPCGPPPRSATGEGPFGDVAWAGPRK
KCNQ2 inh baseline: recorded beside KCNQ2 inh, whose call it bears; B-score; measured here: initial fluorescence intensity artifact check;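 brightness before thallium and not channel activity; 0 = typical well and far values either way flag optical interference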
* hit, by the source's call; i = inactive. Only part of the results is shown, so the mix of outcomes need not match the whole.

SMILES	KCNQ2 inh	KCNQ2 inh baseline
COc1ccc(-c2ncncc2-c2csc(C)n2)c(O)c1OC	i	-1.21
CC(=O)Nc1cccc(-c2cc(-c3c(Cl)cccc3Cl)no2)c1	i	-0.47
N#CC1(NC(=O)CSc2nnc(-c3ccccc3F)o2)CCCCC1	i	2.54
Cc1nc(NC2CCCC2)sc1C(=O)N(C)C	i	2.24
CC(=O)Nc1ccc(-c2csc(NC(=O)CCCc3cccs3)n2)cc1	i	-1.07
CCCCN(Cc1ccccc1)C1CCN(Cc2ccccc2)CC1	i	-0.75
Cc1ccc(S(=O)(=O)N2CCOC23CCN(C(=O)c2cc(Cl)ccc2Cl)CC3)cc1	i	-0.05
CCC(=NCCc1c(C)[nH]c2ccc(OC(F)(F)F)cc12)C1=C(O)CC(c2ccccc2)CC1=O (stereo not given)	i	0.02
O=c1c2c(-c3cccs3)csc2ncn1-c1ccc(Br)cc1	i	0.02
COc1ccc(CC(=O)NNC(=O)CSc2nnc(Cc3ccc(OC)cc3)n2-c2ccccc2)cc1	i	0.65
Cc1cccc(OCc2nnc(SCC(=O)Nc3cccc(C(=O)N4CCOCC4)c3)n2C)c1	i	0.15
CC(C)(C)NC(=O)NC(=O)CN1CCc2ccccc21	i	2.23
CCCCCN(C(=O)COC(=O)COc1c(C)cc(C)cc1C)c1c(N)n(CCCC)c(=O)[nH]c1=O	i	0.86
COc1ccc(F)cc1S(=O)(=O)NCC(c1ccc2c(c1)OCO2)N1CCN(C)CC1 (stereo not given)	i	-0.89
Cc1nc(CS(=O)(=O)c2ccccc2)cc(N2CCN(c3ccccc3F)CC2)n1	i	0.38
CCCc1noc(-c2cccc([N+](=O)[O-])c2)n1	i	-1.13
COC(/C=C/Nc1ccc(OC)cc1)=C(C#N)C#N	i	-0.99
C[C@@H]1C[C@H]2[C@@H]3CCC4=CC(=O)C=C[C@]4(C)[C@@]3(F)[C@@H](O)C[C@]2(C)[C@@]1(O)C(=O)COP(=O)(O)O	i	0.02
CC(C)[C@H](NC(N)=O)C(=O)Nc1ccc(F)c(Cl)c1	i	-0.02
O=C(O)CNC(=O)CCN1C(=O)c2ccccc2C1=O	i	0.57
CCOC(=O)c1cc(C)sc1NC(=O)C(c1ccccc1)c1ccccc1	-6.01*	-1.88*
Cc1ccc(Cn2c(SCC(=O)NCC3CCCO3)nc3ccsc3c2=O)cc1 (stereo not given)	i	1.11
COC(=O)c1cc(-c2c(-c3ccc4c(c3)OCO4)noc2-c2ccsc2)cc([N+](=O)[O-])c1	i	0.17
Cc1cccn(Cc2c(F)cccc2Cl)c1=O	i	0.82
COc1cccc(C(=O)Nc2c(C)n[nH]c2C)c1	i	-0.49
O=C(NNC(=O)C(c1ccccc1)c1ccccc1)c1ccccn1	i	-1.48
O=C(COC(=O)c1cccs1)Nc1ccccc1Cl	i	0.02
CC(C)(C)n1cnnc1Sc1ccc([N+](=O)[O-])cn1	i	4.47
COc1ccc([N+](=O)[O-])c(S(=O)(=O)c2ccc(Cl)cc2)n1	-9.9*	-0.03*
Cc1cc(C)cc(NC(=S)N2CCC(c3nc4ccccc4s3)CC2)c1	i	-0.29
N#Cc1ccc(OCC(=O)Nc2ccccc2NS(=O)(=O)c2cccs2)cc1	i	-1.68
O=C(CSc1nc2ccccc2n1CC(=O)NCc1ccccc1)NCc1ccco1	i	1.05
Brc1ccccc1-c1nnc(CSc2nnc3sc4ccccc4n23)o1	i	0.49
CC(=O)C1=C(O)C(=O)N(Cc2ccco2)C1c1ccccc1F (stereo not given)	i	-3.21
CCOc1ccc(NC(=O)CSc2nccn2C)cc1	i	-0.02
CCOC(=O)N1CCN(C(=O)CCNS(=O)(=O)c2ccccc2)CC1	i	0.73
O=c1[nH]c(=O)n(-c2ccccc2)c2c1C(C(F)(F)F)(C(F)(F)F)N=C(C1CCCCC1)N2	i	-0.97
COc1ccc(NCC(O)Cn2c(C)c(C)c3ccccc32)cc1 (stereo not given)	i	-1.31
CC1CC(C)(C)NC(=S)N1CCCC(=O)Nc1ccc(F)cc1 (stereo not given)	i	1.29
Cc1ccc(C(=O)CSc2nc(N)cc(=O)[nH]2)cc1C	i	-0.12
COc1ccccc1-n1c(SCc2cc(=O)oc3cc(O)ccc23)nc2ccccc2c1=O	i	1.07
Cc1ccc(NC(=S)N2CCC(c3ccccc3)C2)c(Cl)c1 (stereo not given)	i	-0.15
CCOC(=O)Nc1ccc2c(c1)N(C(=O)CN1CCN(C)CC1)c1ccccc1CC2	i	1.72
CN(CCCCCC(=O)/C=N/O)Cc1ccccc1	i	2.37
COc1ccc(/C=C2\SC(c3ccc(C)cc3)=NC2=O)cc1OC	i	-0.01
Clc1cccc2c1Sc1ccccc1CC2N1CCNCC1 (stereo not given)	-7.86*	1.05*
Cc1nnnn1/C(=C\c1ccccc1)C(=O)OCC(=O)Nc1ccc(Cl)cc1F	i	0.64
Cc1ccc2[nH]c(=O)c(CN(CCO)C(=O)N(C)C)cc2c1	i	0.16
CC(c1nccs1)N(C)c1nc2nonc2nc1N(C)C (stereo not given)	i	-0.85
COc1cccc(C(=O)c2cc3cc(Cl)ccc3[nH]2)c1	i	0.06
CC1CC(CC(C)C(=O)NC(=S)Nc2ccc(S(N)(=O)=O)cc2)C(=O)O1 (stereo not given)	i	-0.6
CC(NC(=O)Cn1nc(C(=O)O)c2ccccc2c1=O)c1ccccc1 (stereo not given)	i	-1.74
COc1ccc2ncc(S(=O)(=O)c3ccccc3)c(N3CCC4(CC3)OCCO4)c2c1	i	0.63
O=S(=O)(c1ccccc1Cl)N1CCCC1c1nc(-c2ccccc2Cl)no1 (stereo not given)	i	-1.45
c1ccc(CSc2nnc(-c3ccco3)n2Cc2ccco2)cc1	i	2.24
Cc1cc(C)nc(SCC(=O)c2cc3ccccc3oc2=O)n1	i	0.67
FC(F)(F)c1nc(N2CCCC2)ncc1-c1nnnn1-c1ccc(Cl)cc1	i	1.43
CC(C)COC(=O)N1CCCC1C(=O)O (stereo not given)	i	0.01
CC(=O)/C(=N/Nc1ccc([N+](=O)[O-])cc1)N1CCCc2ccccc21	i	-0.62
CN1C(=O)CC(=O)N(C)c2cc(S(=O)(=O)N(C)Cc3ccccc3)ccc21	i	-0.79

The results go on:
SMILES	KCNQ2 inh	KCNQ2 inh baseline
COCCn1c(Sc2ccccc2)nc2c1c(=O)[nH]c(=O)n2C	i	-0.36
CCOC(=O)c1oc2ccccc2c1CN1CCN(C(=O)c2ccccc2)CC1	i	0.8
O=C(COc1ccc2ccc(=O)oc2c1)Nc1cc([N+](=O)[O-])ccc1F	i	-0.65
CC(Oc1cc(F)ccc1[N+](=O)[O-])C(=O)N(C)CC(=O)Nc1ccccc1C(F)(F)F (stereo not given)	i	1.96
COCCN1CCN(C(=O)c2ccc3nc(Cc4ccccc4F)oc3c2)CC1	i	-0.05
CC1CCc2c(sc3c2C2=NS(=O)(=O)CCN2C=N3)C1 (stereo not given)	i	0.95
COc1ccc(OC)c(C2CC(=O)N3CN(c4ccccc4F)CSC3=C2C#N)c1 (stereo not given)	i	1.33
COC(=O)c1c(-c2ccccc2)csc1N	i	0.09
CCCCNC(=O)Nc1nc(SCC(=O)OCC)n[nH]1	i	-0.46
O=C(CSC(=S)N1CCCCC1)N1N=CCC1c1ccccc1 (stereo not given)	i	1.82
O=C(Nc1ccccc1F)C1CCCN(S(=O)(=O)c2cccc3cccnc23)C1 (stereo not given)	i	0.69
O=C(CSc1nc(=O)n(CCCN2CCOCC2)c2c1CCC2)Nc1ccc(F)cc1	i	-0.07
Cc1cc(NC(=O)c2ccc3c(c2)C(=O)N(Cc2ccccc2)C3=O)no1	i	-0.32
COc1ccc(CN(C)C(=O)C23CC4CC(CC(Cl)(C4)C2)C3)c(OC)c1OC	i	-2.33
Nc1ccc(-n2nc3ccccc3n2)cc1	i	-1.3
CCOc1ccc2nc(NC3=NC(C)(C)C=C(C)N3)nc(C)c2c1	i	-0.54
COc1ccc(NC(=O)CN(C)C(=O)/C=C/c2cn(-c3ccccc3)nc2-c2cccs2)cc1	i	0.4
C[C@@H]1CC=C[C@H]2[C@H]1C(=O)N(Cc1ccccc1)[C@H]2c1ccc(-c2ccoc2)cc1F	-6.93*	-0.18*
CN(C)c1nc(N(C)C)n(C(=O)c2cccs2)n1	i	0.13
CCCOC1CCCN(C(=O)CCc2nnc(Cc3cccc(C)c3)o2)C1 (stereo not given)	i	-0.51
COc1cccc(NC(=O)CN(C)C(=O)CCc2nc3sc4c(c3c(=O)[nH]2)CCCC4)c1	i	-0.99
O=[N+]([O-])c1cccc(-c2nc(-c3ccccc3)no2)c1	i	-0.1
COc1ccc(C(=O)N(Cc2ccccc2)c2cccc(C)c2)cc1S(=O)(=O)N1CCOCC1	i	1.68
COc1ccc(C2CC(=O)c3c(C)nc(N4CCN(Cc5ccccc5)CC4)nc3C2)cc1OC (stereo not given)	i	-0.08
O=C(NC1CCCCCC1)c1cccnc1Sc1ccccc1	i	0.78
COc1ccc(N/C=C(\C#N)c2nc3ccccc3n2C)c(OC)c1	i	-0.35
CN(Cc1ccccc1)C(=O)c1ccc(Cl)c([N+](=O)[O-])c1	i	-0.74
Cc1cc(NC(=O)C2CC(=O)N(c3ccccc3C)C2)no1 (stereo not given)	i	-0.08
Cc1sc2nc(SCC(=O)N3CCOCC3)[nH]c(=O)c2c1-c1ccccc1	i	-1.03
CCn1c(CCNC(=O)c2ccc(OC)cc2)nnc1SCc1ccc(Cl)c(Cl)c1	i	-1.67
CCn1nc(C)c(/C=C2\CCCC3=C2OC(N)=C(C#N)C3c2c(C)nn(CC)c2C)c1C (stereo not given)	i	1.84
Cc1cccc(N/C(N)=N/c2nc(C(F)(F)F)cc(C(F)(F)F)n2)c1	i	-1.74
CC(=O)N1N=C(c2ccccc2OC(=O)/C=C/c2ccccc2)CC1c1ccccc1 (stereo not given)	i	-0.05
CCOc1cc(S(=O)(=O)Nc2ccccc2CC)ccc1Cl	i	-1.23
COCCSc1nc2sc3c(c2c(=O)n1-c1ccccc1)CCN(C)C3	i	1.97
N#Cc1ccc(NC(=O)c2cc(S(=O)(=O)N3CCOCC3)ccc2N2CCCC2)cc1	i	0.78
C=C(C)Cn1c(-c2ccccc2)nc2ccccc21	i	2.25
CN(C)/C=N/C(=S)Nc1ccccc1F	i	1.7
COCCNC(=O)NC(=O)CN1CCN(C(c2ccccc2)c2ccccc2)CC1	i	-0.66
C=CCn1c(=O)c2c(nc3n2CCCN3Cc2ccccc2)n(C)c1=O	i	1.14
Cc1[nH]c2ccccc2c1C(=O)C(=O)NCCCc1ccccc1	i	1.08
CON(C)c1nc(OCCNC(=O)OCc2ccc(Cl)cc2C)nc(N(C)C)n1	i	-1.76
O=C(NCc1ccccc1)c1cc(-c2cccs2)on1	i	0.69
Cc1nc2ccccn2c1-c1nnco1	i	0.84
O=C(CSc1nc2ncc(Br)cc2[nH]1)Nc1ccccc1-c1ccccc1	i	0.09
O=C(CCS(=O)(=O)Cc1ccc(Cl)cc1)NCCCN1CCN(c2ccccc2F)CC1	i	-0.91
Cc1cc(NC(=O)CN2C(=O)S/C(=C\c3ccccc3)C2=O)no1	i	-1.06
O=C1ON=C(c2cccc([N+](=O)[O-])c2)/C1=C/c1ccc(O)cc1	i	-1.92
Cc1ccc(C(=O)n2nnc3ccccc32)cc1[N+](=O)[O-]	i	-1.09
CCCC[n+]1ccn(-c2nc3c([N+](=O)[O-])cccc3n2C)c1	i	0.26
Cc1nc(NC(=O)C2CC2)sc1C(=O)Nc1cccc(Cl)c1	i	-0.72
CC(=O)N1/C(=C/c2ccc(N(C)C)cc2)C(=O)c2ccccc21	i	-1.13
Cc1ccccc1NC(=O)COC(=O)c1c[nH]c(=O)[nH]c1=O	i	0.42
CN(C)c1ccc(CNc2ccc3c(c2)ncn3C(C)(C)C)cc1	i	1.11
CCOc1ccc(NC(=O)c2ccc(C#CC(C)(C)O)cc2)cc1	i	0.07
O=C1CC(NS(=O)(=O)c2ccc([N+](=O)[O-])cc2)CN1c1ccc2c(c1)OCCO2 (stereo not given)	i	-0.52
COc1cc(C(=O)NCc2cc3cc(Cl)ccc3n2C)cc(OC)c1OC	i	-1.55
CCOC(=O)NC(=S)Nc1c(C)n(C)n(-c2ccccc2)c1=O	i	-0.04
COC(=O)C1=C(C)NC(C)=C(C(=O)OC)C1c1cn(-c2ccccc2)nc1-c1ccco1	i	1.14
O=S(=O)(c1ccc(Cl)cc1)c1cnc(-c2cccnc2)nc1-c1ccccc1	i	1.05
